# Screens from PubChem BioAssay.
# Arbovirus inh: antivirals against arbovirus infection, primary screen, cell-based, full library, 10K replicate subset; arbovirus infection cell-based antiviral screen; inhibition, % at 10 µM; 200,000 compounds, 0.37% hits;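 active means inhibition from about 30%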;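 further: bluetongue infection of BSR cells; cell survival read as ATP light after 72 h; 0% = infected wells without compound and 100% = uninfected wells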
# YopH PTP inh: YopH tyrosine phosphatase inhibitors, primary screen, biochemical, fluorescence Ex485/Em525; YopH tyrosine phosphatase [Yersinia enterocolitica]; inhibition, %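 (about 10 µM by stock and volumes)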; 140,000 compounds, 0.16% hits; AID 898, 2007;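 active means inhibition of 50% or more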;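 further: controls were vehicle for no effect and minimum signal wells for full effect; inactives centre near -20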
# Mtb growth: M. tuberculosis H37Rv growth inhibitors, H37Rv strain (AID 1626) | 220,000 compounds, 0.95% hits | inhibition, % at 10 µM, or IC50 in µM where a hit was titrated | M. tuberculosis H37Rv growth inhibition; higher % means a stronger effect;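 active means confirmed in a dose series; inconclusive means inhibition above 80% but not taken into the dose series; inactive means below 80% or under 30% at every dose of the series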;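 further: bacteria incubated seven days before Alamar blue readout; 0% = bacteria only wells and 100% = bacteria with antibiotic wells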
# RecA splice inh: Mtb RecA intein splicing inhibitors, primary screen, biochemical, fluorescence, HTS; Protein RecA (Mycobacterium tuberculosis (strain ATCC 25618 / H37Rv)), P9WHJ3; cell-free RecA intein splicing; inhibition, %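 (about 9 µM by stock and volumes)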; 290,000 compounds, 0.75% hits; AID 2221, 2009; in the data active means inhibition above about 30%; inconclusive means no clear call, values can overlap the other calls;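 further: 0% = vehicle wells and 100% = reference inhibitor control wells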
# Target sequence (P9WHJ3 whole entry, looked up, canonical isoform): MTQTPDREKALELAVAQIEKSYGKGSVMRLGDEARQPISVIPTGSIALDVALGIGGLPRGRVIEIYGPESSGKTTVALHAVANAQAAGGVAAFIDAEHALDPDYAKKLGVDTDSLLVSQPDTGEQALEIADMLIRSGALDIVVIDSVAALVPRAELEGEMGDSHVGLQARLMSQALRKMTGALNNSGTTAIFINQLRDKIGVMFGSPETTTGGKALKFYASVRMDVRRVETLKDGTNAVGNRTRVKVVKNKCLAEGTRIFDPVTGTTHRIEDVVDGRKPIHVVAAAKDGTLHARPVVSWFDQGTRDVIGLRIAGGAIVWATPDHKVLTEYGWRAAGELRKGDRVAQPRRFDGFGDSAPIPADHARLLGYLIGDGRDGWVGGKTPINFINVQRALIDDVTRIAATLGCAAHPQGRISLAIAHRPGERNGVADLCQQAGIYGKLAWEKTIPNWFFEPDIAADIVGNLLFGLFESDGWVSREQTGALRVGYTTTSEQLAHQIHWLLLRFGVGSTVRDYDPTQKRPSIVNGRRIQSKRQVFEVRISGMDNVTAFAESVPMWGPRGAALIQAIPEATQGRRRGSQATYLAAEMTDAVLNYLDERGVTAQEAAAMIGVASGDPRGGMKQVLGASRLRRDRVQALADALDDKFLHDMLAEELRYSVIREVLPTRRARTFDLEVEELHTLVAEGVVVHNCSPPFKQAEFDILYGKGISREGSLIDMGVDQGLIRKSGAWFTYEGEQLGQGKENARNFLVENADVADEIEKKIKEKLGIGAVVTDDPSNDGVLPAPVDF
# Mtb bLac sens: beta-lactam sensitization of Mtb H37Rv, H37Rv | 330,000 compounds, 0.27% hits | M. tuberculosis H37Rv growth with meropenem, percent inhibition; hits of this screen are not shown here | inhibition, % at 25 µM;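 active means about 74% or more and at least 40 points above the plate without the antibiotic, then above 30% in a dose series; inconclusive means first-round hits that could not be retested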;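 further: growth measured after seven days incubation then overnight dye step; 0% = bacteria only wells and 100% = bacteria with antibiotic; twin plates without the antibiotic show which effects depend on it; some results filed as inactive read as strong as hits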
# Arbovirus inh repeat: also measured in Arbovirus inh; calls as there; inhibition, %; measured here: 10K subset replicate screen; many hits read low in the repeat;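 first of two repeat runs on a subset; 0% = infected and 100% = uninfected wells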
# * = called active by the depositor; ? = inconclusive; . = no result given.
SMILES,Arbovirus inh,YopH PTP inh,Mtb growth,RecA splice inh,Mtb bLac sens,others
Cc1cccc(N2N=C(C(=O)Nc3nc(C)cs3)CCC2=O)c1,-12,.,-4%,0.5,1,
Cc1cccc(-n2c(O)c(C=Nc3ccc4c(c3)OCO4)c3ccccc3c2=O)n1,-16,-12,0%,-15,47,Arbovirus inh repeat=-8
COc1ccc(NS(=O)(=O)c2cccc(C(=O)N/N=C/c3cn(-c4ccccc4)nc3-c3ccccc3)c2)cc1,.,.,-10%,-13,-1,
N#CCCN(Cc1ccncc1)C(=S)NC1CC2C=CC1C2 (centres undefined),.,.,-5%,0.1,1,
CCOC(=O)c1c2ccc(OCC(=O)N/N=C/c3ccc(Cl)cc3)cc2n2ccccc12,-7,24,.,-13,.,
COc1ccccc1-c1nnc(SCC(=O)N2CCCC2)o1,.,.,.,-4.4,2,
CN1C(C(=O)NCc2ccccc2)CC2Cn3c(nc4ccccc43)C21 (centres undefined),.,.,-5%,-0.9,0,
O=S(=O)(N1CCOCC1)n1nnc2ccccc21,7,-32,-6%,1.2,2,
COCCn1c(SCC(=O)Nc2nc(C)cs2)nnc1C(C)C,.,.,.,1.2,2,
O=C(NC1CCCCC1)c1ccc(CNc2ccccc2)o1,-9,2,-9%,-0.5,-2,
CC(=O)Nc1ccc(OCc2ccc3c(c2)OCO3)cc1,.,.,.,-1.8,-5,
CCc1cccc(NC(=O)c2snc3c(=O)[nH]cnc23)c1,9,-2,-4%,-0.2,-3,
O=C(CCNS(=O)(=O)c1ccc2[nH]c(=O)oc2c1)NCc1ccc(F)cc1,.,.,.,1.5,-2,
N/C(Cc1cccs1)=N\OC(=O)COc1ccc(Br)cc1,8,-39,26%,11,-5,
CCN(CC)c1ccc(C(=O)OCC(=O)Nc2cc3oc4ccccc4c3cc2OC)cc1,-16,-23,2%,0.3,-1,
CCOC(=O)c1c(CSc2ccccc2)n(C)c2ccc(O)c(CN3CCOCC3)c12,-1,.,-3%,11,-4,
O=[N+]([O-])c1ccccc1O[C@@H]1O[C@H](CO)[C@H](O)[C@H](O)[C@H]1O,.,.,3%,-0.2,31,
Cc1cc(N)n(-c2ccc(Cl)cc2)n1,-4,.,8%,0.3,-2,
Cn1cc(CNC(=O)C2c3ccccc3Oc3ccccc32)cn1,8,-29,-11%,-1.6,-8,
COc1ccc(CN2CCN(c3cc(C)nc4c5c(C)cc(C)nc5nn34)CC2)cc1F,.,.,2%,-10,-1,
Cc1cc(=O)oc2c1c(C)nn2-c1ccc(Br)cc1,4,.,-6%,.,6,
CCSc1nnc(NC(=O)NC(CC)(C(F)(F)F)C(F)(F)F)s1,-22,-39,0%,1.2,-3,
COc1ccc(S(=O)(=O)CCc2nnc(NC(C)=O)s2)cc1,16,.,3%,-4.2,10,
CCN(CC)C(=O)C1CCCN(Cc2cccc(F)c2)C1 (centres undefined),1,-25,6%,.,6,
Cc1cccc(NS(=O)(=O)c2cnc(Cl)c(Br)c2)n1,0,-13,1%,-3.3,-6,

# Quoted at random: seven compounds from above
SMILES,Arbovirus inh,YopH PTP inh,Mtb growth,RecA splice inh,Mtb bLac sens,others
Cc1cc(=O)oc2c1c(C)nn2-c1ccc(Br)cc1,4,.,-6%,.,6,
COc1ccccc1-c1nnc(SCC(=O)N2CCCC2)o1,.,.,.,-4.4,2,
Cn1cc(CNC(=O)C2c3ccccc3Oc3ccccc32)cn1,8,-29,-11%,-1.6,-8,
CC(=O)Nc1ccc(OCc2ccc3c(c2)OCO3)cc1,.,.,.,-1.8,-5,
Cc1cccc(NS(=O)(=O)c2cnc(Cl)c(Br)c2)n1,0,-13,1%,-3.3,-6,
O=[N+]([O-])c1ccccc1O[C@@H]1O[C@H](CO)[C@H](O)[C@H](O)[C@H]1O,.,.,3%,-0.2,31,
O=C(NC1CCCCC1)c1ccc(CNc2ccccc2)o1,-9,2,-9%,-0.5,-2,

# Next results follow:
SMILES,Arbovirus inh,YopH PTP inh,Mtb growth,RecA splice inh,Mtb bLac sens,others
CCSC(=S)c1c(C)[nH]n(-c2ccccc2)c1=O,.,.,-5%,7.9,61,
CCOC(=O)N1CCN(S(=O)(=O)c2c(C)nc3sccn3c2=O)CC1,.,.,.,0.2,-3,
N#Cc1ccc2[nH]c(CO)c(-c3ccccc3)c2c1,.,.,.,1.9,50,
O=C1CCc2ccc(NC(=O)C3CC3)cc2N1,6,.,-9%,1.3,31,
CCC(C)[C@H](NC(=O)N1CC(=O)Nc2ccccc21)C(=O)Nc1ccccc1C (some centres undefined),.,.,.,1.9,3,
C=CCN(CC=C)CCOc1cc(C)ccc1[N+](=O)[O-],1,.,1%,-4.3,-8,
CC1CN/C(=C\C(=O)c2ccc(Br)cc2)C(=O)N1 (centres undefined),4,-24,-1%,1.2,0,
COc1ccc(C(=O)CC(=O)C(=O)Nc2cc(Cl)c(OC)cc2OC)cc1,-1,.,3%,-0.4,20,
CCCN(C(=O)C(=O)Nc1ccc2nc3n(c(=O)c2c1)CCCCC3)c1ccc(OCC)cc1,.,.,7%,-0.4,-8,
CCC(=O)c1ccc(O)cc1,5,-56,14%,1.5,1,
CN1CCN(Cc2nc(-c3cccs3)no2)CC1c1ccccc1 (centres undefined),-3,.,15%,1.5,-3,
N/C(=N\OC(=O)CCc1ccccc1)c1ccc(Br)cc1,2,-35,-11%,2.4,6,
Cc1ccc(NC(=O)CCNC(=O)c2ccccc2Cl)nc1,.,.,.,2.9,-1,
C/C(=N\NC(=O)c1ccc(C)cc1C)c1ccc(-n2ccnc2)cc1,3,-15,-6%,2.7,5,
Cc1ccc(C)c(N2CC(C(=O)O)CC2=O)c1 (centres undefined),-2,.,-8%,-1.0,-3,
CSc1ccc(Cn2nnc(C(=O)NCc3ccccc3)c2N)cc1,4,-32,7%,0.5,?,
CCOC(=O)CSc1nc2c(sc(=S)n2-c2ccccc2)c(=O)n1-c1ccc(OC)cc1OC,.,.,.,-19,38,
Cc1ccc(SCC(=O)N2CC(C)OC(C)C2)cc1 (centres undefined),11,-4,-1%,-0.3,8,
CCC(C)c1c(O)nc(SCC(=O)c2ccccc2)[nH]c1=O (centres undefined),6,-6,-2%,1.6,-1,
Cc1ccc(C)c(OCCn2cc(/C=C(\C#N)C(=O)NCc3ccco3)c3ccccc32)c1,-25,-13,1%,-3.4,0,
CCN(CC(=O)N1CCOCC1)S(=O)(=O)c1ccc(C)cc1,3,-20,-2%,1.0,-4,
CCCOc1ccc(/C=N/Nc2ccc(C(=O)O)cc2)c(OCCC)c1,-4,.,21%,5.6,.,
C/C(Cn1nnc2ccccc21)=N\NC(=O)c1cccc(Br)c1,-9,-17,4%,0.3,4,
O=C(N/N=C/C=C/c1ccco1)c1ccncc1,.,.,?,2.7,99,
Cc1ccc(C)c(C(=O)CSc2nc3ccccc3c(=O)[nH]2)c1,-5,.,5%,-1.6,0,
# Next part:
SMILES,Arbovirus inh,YopH PTP inh,Mtb growth,RecA splice inh,Mtb bLac sens,others
COc1ccc(S(=O)(=O)N2CCCCCC2)cc1N,-5,.,-8%,1.4,-9,
COc1ccc(CN2CCNC(=O)C2CC(=O)NCCSc2nccn2C)cc1OC (centres undefined),6,.,-3%,-1.6,-2,
CSC(=Nc1ccccc1)c1c(O)n(C)c(=O)n(C)c1=O,5,-3,-2%,11,9,
COc1ccc(/C=N/OC(=O)Nc2ccccc2OC)cc1,-15,.,5%,0.1,-7,
COc1ccc(-c2cc(-c3c(O)c(OC)c4occc4c3OC)[nH]n2)cc1OC,-10,-21,7%,12,-8,
Cc1ccc(N(CC(=O)N/N=C/c2cccs2)S(C)(=O)=O)cc1Cl,7,-15,0%,-2.0,-8,
CCCCN(C)C(=O)c1nc2ccccn2c1CN1CCN(c2ncccn2)CC1,5,.,5%,0.0,-6,
Cc1ccc(C(=O)Cn2c(C(=O)O)cc3ccccc32)cc1,.,.,.,-0.4,-5,
NC(N)=NS(=O)(=O)c1ccc(NC(=S)NC(=O)c2ccc3c(c2)OCO3)cc1,-1,.,0%,-6.6,0,
COC(=O)C1=NN(c2ccccc2)C2(S1)SC(C(C)=O)=C(C)N2c1ccccc1 (centres undefined),-6,-194,-8%,3.8,-10,
Cn1c2c(c(=O)c3ccccc31)CCCC2,.,.,.,0.1,3,
CCc1nc2ccc(C(=O)NCCc3ccccc3OC)cc2nc1CC,.,.,.,2.3,-8,
COc1cccc(NC(=O)Cc2nnc(SCCOc3ccccc3)n2C)c1,6,-1,5%,4.8,-4,
CCCCCOC(=O)Cn1c(=O)oc2ccc(C)cc21,-2,-16,6%,-0.6,9,
CON(c1nc(Cl)nc(N(C)C)n1)S(=O)(=O)c1ccccc1Cl,-1,-11,-1%,-3.8,5,
CSc1nc(C)c(CCOC(=O)c2cccc(Cl)c2)c(=O)[nH]1,4,-44,3%,0.5,1,
CC(=O)Nc1ccc(NC(=O)c2ccccc2S(=O)(=O)c2ccc([N+](=O)[O-])cc2)cc1,-6,.,-1%,0.1,6,
CC1(C)SCC2C(=O)N3C(CSC3(C)C)C(=O)N21 (centres undefined),17,-37,-1%,-1.3,1,Arbovirus inh repeat=5
Cc1ccc(CSc2nnc(-c3cccs3)n2C)cc1,1,-37,3%,1.3,5,
COc1cc(C(=O)NCc2nnc(SCC(=O)c3ccc(Cl)cc3)o2)cc(OC)c1OC,.,.,.,-4.5,0,
NC1=NC(=O)C2(COC(c3ccccc3Cl)OC2)S1 (centres undefined),2,-20,-7%,2.0,6,
N=c1oc2cc(O)ccc2cc1C(=O)Nc1ccccn1,-1,.,-8%,.,0,
CC(C)c1ccc(NC(=O)C2CCN(S(=O)(=O)c3ccc4c(c3)NC(=O)CO4)CC2)cc1,.,.,.,-7.0,6,
c1ccc(-n2nnnc2OCCOc2nnnn2-c2ccccc2)cc1,5,-14,1%,4.5,-11,
COc1ccc(C(=O)Nc2cc3c4c(c2)CC(=O)N4CCC3)cc1,.,.,.,12,-6,
# (listing goes on)
SMILES,Arbovirus inh,YopH PTP inh,Mtb growth,RecA splice inh,Mtb bLac sens,others
CCn1c(CC(=O)Nc2ccccc2)nnc1SCC(=O)N1CCOCC1,.,.,.,-3.3,-5,
C=CCOn1c(=O)c(-c2ccc(Br)cc2)[n+]([O-])c2ccccc21,.,.,.,2.2,?,
O=c1c2ccccc2nc(-c2cccs2)n1-c1cccc2ccccc12,15,-33,4%,3.4,0,
CC(=O)c1cccc(NC(=O)c2ccc(N(C)S(C)(=O)=O)cc2)c1,7,11,1%,.,3,
COc1ccc(N2CCN(S(=O)(=O)CCNC(=O)c3ccco3)CC2)cc1,.,.,.,-3.3,-14,
CCCn1cnnc1CNC(=O)C1CCC(=O)N(CCCc2ccccc2)C1 (centres undefined),.,.,.,-1.1,-3,
CCOc1ccccc1NC(=O)CN1C(=O)COc2ccccc21,.,.,.,-2.3,-2,
Cc1nnc2ccc(-c3cccc(NC(=O)Cc4cccs4)c3)nn12,-8,.,6%,1.7,-4,
COC(=O)CN1C(=O)CC(C)(C)S(=O)c2ccccc21 (centres undefined),0,-28,-7%,-1.4,?,Arbovirus inh repeat=0
COC(=O)c1ccc(/C=C(\C#N)c2nc3ccccc3s2)cc1,-1,-4,4%,-1.9,25,
Cn1nc(C(F)(F)F)c(-c2ccc(F)cc2)c1NC(=O)c1cccnc1,.,.,-3%,0.2,-2,
COc1cccc(-c2ccc(=O)n(CC(=O)Nc3ccc(C(=O)N4CCCC4)cc3)n2)c1,3,-3,-3%,1.4,-4,
Cc1ccccc1-n1c(SCc2cc(=O)n3ccccc3n2)nc2[nH]ncc2c1=O,6,2,-2%,2.0,-2,
Cc1[nH]n(-c2ccc([N+](=O)[O-])cc2)c(=O)c1C=NCCc1c(C)[nH]c2ccccc12,-14,-2,-4%,7.0,-3,
Cc1ccc(-c2nnn(CC(=O)N3CCCCC3)n2)cc1,.,.,.,-1.7,0,
CCN(CC)CCCNC(=O)c1cn(C)c2ccc(S(=O)(=O)N(C)C)cc2c1=O,-2,0,-10%,-2.4,?,Arbovirus inh repeat=-2
Cc1[nH]c(C)c(S(=O)(=O)NCc2ccc(Cl)cc2)c1C(=O)N1CCCC1,.,.,.,-3.5,-1,
[N-]=[N+]=CC(=O)C(O)(c1ccccc1)C(Cl)c1ccccc1 (centres undefined),.,.,.,8.1,-2,
OCCN1CCN(C(c2cccs2)c2ccc3cccnc3c2O)CC1 (centres undefined),-38,-62,5%,.,.,
Cc1c(Cl)c(C(=O)NNC(=S)NCc2ccco2)nn1C,2,-33,-12%,-4.8,7,
Cc1ccc(CN(Cc2ccccc2)C(=S)NCC(=O)NCc2cccnc2)o1,4,.,-3%,-0.6,-5,
O=C(c1ccco1)N1CCN(c2ncnc3scc(-c4ccc(F)cc4)c23)CC1,-10,-15,2%,9.9,0,

# The list is partial; the hit share may differ from the screen's.
